From PubChem
Choline anaer gr – growth inhibitors of anaerobic choline-fed gram-negatives, minimal medium, absorbance; Gram-negative bacterium anaerobic choline minimal medium; stronger effect = lower value; many inactives read as strong as hits in the columns shown; calls only; actives 0.2% (n = 55,000);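 active = growth z-score on choline under -2 at 7 or 20 h with little or no fall on glycerol, limits in tiers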;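 note: stock transfer was 300 nL into about 50 µL; the organism is E. coli; final concentration not given here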
Choline anaer gr early – second read-out of Choline anaer gr, no call of its own (marks repeat the call); z-score; measured here: choline growth z-score, timepoint 1;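 score of optical density at 7 h as mean of two plates; lower means less growth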
Active calls of the source: *; i = inactive; & = joins results of further samples.

canonical_smiles | Choline anaer gr | Choline anaer gr early
Cc1nc2cccnc2n1-c1cc(C(=O)NCc2ccccc2)ccc1Cl | i | 0.92
CCC1(C)CC(=O)c2c(ccc3oc(C(=O)N4CCN(Cc5ccccc5)CC4)c(C)c23)O1 (configuration not stated) | i | 0.12
Cc1ccc2ncnc(Nc3ccc(Cl)cc3)c2c1 | i | 0
C=CCSc1nc2c(c(=O)[nH]1)C(C(=O)Nc1cc(F)ccc1F)CC(=O)N2 (configuration not stated) | i | 0.18
Cc1ccc(C(=O)Nc2ccc(S(=O)(=O)O)c3cc(S(=O)(=O)O)cc(S(=O)(=O)O)c23)cc1NC(=O)c1cccc(NC(=O)Nc2cccc(C(=O)Nc3cc(C(=O)Nc4ccc(S(=O)(=O)O)c5cc(S(=O)(=O)O)cc(S(=O)(=O)O)c45)ccc3C)c2)c1 | i | 0.63&0.42&0.7
CCc1nc(-c2csc(S(=O)(=O)N3CCC(C(=O)Nc4cccc(OC)c4)CC3)c2)no1 | i | 1
COc1ccc(-c2cc(=O)n3[nH]c(C)c(-c4ccc(OC)cc4)c3n2)cc1 | i | -1.1
CCN1CCC[C@H]1CNC(=O)c1c(O)c(Cl)cc(Cl)c1OC | i | -0.02&1.1&0.13&-0.17
O=C(CCCc1nc(-c2ccccc2)no1)Nc1nncs1 | i | -0.18
CC(=O)[C@H]1CC[C@H]2[C@@H]3C=CC4=CC(=O)CC[C@@]4(C)[C@H]3CC[C@]12C | i | -0.1
CCOc1ccc(OCC)c(NC(=O)Nc2ccc3c(c2)N(C)C(=O)CS3)c1 | i | -0.74
c1cnc(-c2nc(-c3ccc(-c4csc(C5CC5)n4)cc3)no2)cn1 | i | 1.3
CCCNC(=O)C1CCCN(c2cc(=O)n(C)c(=O)n2C)C1 (configuration not stated) | i | -0.01
CCOC(=O)c1c(NC(=O)c2cc(CC)on2)sc2c1CCCC2 | i | 0.52
CC(C)NC(=O)Cn1nc(N2CCN(c3ccccc3)CC2)ccc1=O | i | -0.31
Clc1cccc(-c2nn3c(-c4cccnc4)nnc3s2)c1 | i | -0.34
COC(=O)CCc1c(C)[nH]n(-c2nc(-c3ccc(F)cc3)cs2)c1=O | i | 0.06
CCCCCNC(=O)c1ccc(Oc2ccnc(-c3cccc(C)c3)n2)cc1 | i | 0.72
Cc1nc2c(c(NCc3cccnc3)n1)CCC2 | i | -1
CC(C)NCC(O)COc1ccc(CC(N)=O)cc1 (configuration not stated) | i | 1.1&0.96&0.6
COc1cccc(NS(=O)(=O)c2ccc3c(c2)NC(=O)CCS3)c1 | i | -0.8
COc1ccc(NS(=O)(=O)c2cc(-c3noc(C(=O)N4CCCC4)n3)cs2)c(OC)c1 | i | -0.07
Cc1c(CNCCc2ccc(S(N)(=O)=O)cc2)c(C(=O)O)c(C)n1Cc1ccccc1F | i | 0.4
CC(C)Cn1c(=O)c2ccc(C(=O)NC(C)C)cc2n2c(SCC(=O)NC(C)(C)C)nnc12 | i | -0.44
CCCS(=O)(=O)N1CCCN(c2nc3cc(Cl)ccc3n3cccc23)CC1 | i | 1.8
O=C(Nc1ccc(Cn2cnc(-c3nc(-c4ccccc4)no3)c2)cc1)c1ccc(F)cc1 | i | 0.52
Cc1ccc(S(=O)(=O)N2CCC(C(=O)NCC(=O)N3CCCc4ccccc43)CC2)cc1 | i | 0.38
Clc1ccc(CNc2cc(-c3ccccc3)ncn2)cc1 | i | 0.29
Cc1[nH]c(C(=O)N2CCC(CC(=O)NCc3ccccc3Cl)CC2)c(C)c1C(=O)OC(C)C | i | 0.73
CCOCCCNC(=O)c1ccc(-c2nccc(Oc3ccc(OC)cc3)n2)cc1 | i | 0.14
Cc1ccc(S(=O)Cc2nc(-c3ccc(C(=O)NCC4CCCO4)cc3)oc2C)cc1 (configuration not stated) | i | -0.86
O=C(NCc1ccccc1)C1CCN(c2nc3ccccc3nc2C(F)(F)F)CC1 | i | 0.81
Fc1ccc(-c2ccc(CNCC3CCCO3)o2)cc1 (configuration not stated) | i | -0.61
Cc1noc(C)c1S(=O)(=O)N1CCCC1c1cc(C(C)C)no1 (configuration not stated) | i | 0.58
CNCc1ccc2c(c1)n(C)c(=O)n2C | i | 1.5
CCc1ccc(-c2ccc(=O)n(CCc3nc(-c4ccccc4)no3)n2)cc1 | i | 0.73
CC(C)c1csc(-c2csc(S(=O)(=O)Nc3ccc(Br)cc3F)c2)n1 | i | 0.61
Cc1c(-c2nnc(C(=O)NCc3ccc4c(c3)OCO4)o2)oc2ccccc12 | i | 0.03
Cc1cccc(-n2ncc3c2ncn2nc(COc4ccc(Cl)cc4)nc32)c1 | i | 0.01
C=CCn1c(=O)c2ccc(C(=O)NCc3ccc4c(c3)OCO4)cc2n(CC(=O)Nc2ccc(F)cc2)c1=O | i | -0.1
Cc1ccc(-c2noc3c(NC4CCCCC4)nc(C)nc23)cc1 | i | 2.1
CCN(CC)CCOC(=O)C1(c2ccc([N+](=O)[O-])cc2)CCCC1 | i | -0.08&-0.34
Cc1cc(NC(=O)C2Nc3ccccc3S(=O)(=O)N2)ccc1Br (configuration not stated) | i | 0.24
Cc1nsc(NC(=O)c2oc3ccc(F)cc3c2C)n1 | i | 0.77
CCc1nc(CN2C(=O)COc3cc(S(=O)(=O)N4CCc5ccccc5C4)c(C)cc32)no1 | i | 1.4
c1nc(N2CCC(N3CCCCC3)CC2)c2nc3n(c2n1)CCCCC3 | i | 0.16
COC(=O)c1ccccc1NC(=O)c1nnn(-c2ccc3noc(-c4ccccc4)c3c2)c1C | i | -0.58
O=C1CCCC2=C1C(c1ccccc1)N(C(=O)c1ccccc1)c1ccccc1N2 (configuration not stated) | i | -1.2
COc1ccc(NC(=O)NCCc2nc3cccnc3n2C2CCCCC2)c(OC)c1 | i | -0.43
CC(C)c1cc(NCc2ccccn2)n2ncc(-c3ccccc3)c2n1 | i | 2.3
COc1ccc(NC(=O)Cn2c3ccccc3n3c(=O)cc(-c4ccc(Cl)cc4)nc23)c(OC)c1 | i | -0.64
O=C(Cn1cnn2cc3c(c2c1=O)CCCC3)N1CCCC1 | i | 0.23
Cc1cccc(C)c1NC(=O)Nc1cc2sccc2n1C | i | -0.99
CCOC(=O)CNC(=O)NCCC1CCN(C(=O)Nc2cccc(Cl)c2)CC1 | i | -0.06
CC(C)(C)OC(=O)Nc1ccc(-c2cc(C(=O)NCCCCCCC(=O)NO)no2)cc1 | i | 0.25
CN(C)C(=O)/N=N/C(=O)N(C)C | i | -0.86
CC(O)CC(C)(C)O (configuration not stated) | i | 0.62
CC(C)NC(=O)C1CCCN(C(=O)[C@H]2CCCN2)C1 (some centres not stated) | i | 0.84
Cc1csc(NS(=O)(=O)c2ccc3c(c2)NC(=O)C(C(=O)N2CCC(C)CC2)S3)n1 (configuration not stated) | i | 0.81
COc1ccc(C2=Nc3ccccc3N(Cc3ccc(Cl)cc3F)C(=O)C2)cc1 | i | 0.8

Remaining list, next part:
canonical_smiles | Choline anaer gr | Choline anaer gr early
Cn1ncc2c(Nc3ccccc3)ncnc21 | i | -1
Cc1cc2nc(COc3ccc(Cl)cc3NC(=O)C(C)Oc3ccccc3)cc(=O)n2o1 (configuration not stated) | i | 0.64
O=C(NC1CC1)C1=Cc2cc(Br)ccc2OC1 | i | -0.35
COCCCn1c(SCc2nc(-c3ccccc3)no2)nc2cc3c(cc2c1=O)OCO3 | i | 1.9
CCc1nc(-c2cc(S(=O)(=O)N3CCC(C(=O)N4CCN(CC)CC4)CC3)c(C)s2)no1 | i | -0.05
COc1ccccc1CNS(=O)(=O)c1cc(-c2cc(C(F)(F)F)on2)sc1C | i | 0.57
CCN1C=C(C(=O)OCc2c(C)noc2C)C(C)=NS1(=O)=O | i | 0.9
COc1ccccc1Cn1c(SCC(=O)Nc2ccc(Cl)cc2F)nc2nccnc2c1=O | i | 0.41
Cc1ccc(CNC(=O)C2CCCN(c3nc4ncccc4n4cccc34)C2)cc1 (configuration not stated) | i | -2.1
COc1ccc(CNC(=O)c2ccc(-c3cccnc3)cc2)c(OC)c1 | i | -0.75
O=C1NCCCC1N1CCCCC1 (configuration not stated) | i | 0.08
CCn1nc(C)n2cc(S(=O)(=O)NCc3ccco3)cc2c1=O | i | -0.07
CCN1C(=O)c2ccccc2S(=O)(=O)c2ccc(C(=O)N3CCN(c4cc(Cl)ccc4C)CC3)cc21 | i | -0.42
CC1=CC(C)(C)NC(=O)N1c1ccc(C)cc1 | i | -0.83
Cn1c(CN2CCN(C(=O)Nc3ccccc3Cl)CC2)nc2cc(C(=O)N3CCCC3)ccc21 | i | 0.04
Cc1ccc(-c2noc(-c3ccc(NC(=O)C4CC(=O)N(c5cccc(C)c5)C4)cc3)n2)cc1 (configuration not stated) | i | 0.26
Cc1nn(-c2ccccc2)c2c1C(C(=O)NC1CCCC1)N(CCC1=CCCCC1)C(=O)CS2 (configuration not stated) | i | 0.25
O=C(c1ccc2cn[nH]c2c1)N1CCN(c2cccc(Cl)c2)CC1 | i | -0.38
Fc1ccc(-c2noc(CSc3ccc(-c4cccc(Cl)c4)nn3)n2)cc1 | i | -0.51
COc1ccc(NC(=O)Cn2nc(-c3nc(-c4ccc(C)cc4)no3)c3ccccc32)cc1 | i | -0.23
Cc1ccc(NC(=O)COc2cccc3ccc(N4CCCC4)nc23)cc1Cl | i | -0.38
O=C(NCC1COc2ccccc2O1)c1ccc2c(Cl)c3c(nc2c1)CCCC3 (configuration not stated) | i | -0.98
Cc1nc(-c2ccc(C(=O)N3CCN(C(c4ccccc4)c4ccccc4)CC3)cc2)no1 | i | 0.95
O=C(NCc1nc2cccnc2n1Cc1ccccc1)c1ccccc1Br | i | -0.12
O=C(Nc1cc(F)c2[nH]c(=O)ccc2c1)C1CC1 | i | -0.85
CCCc1cc(C2CCCN2Cc2ccc(OC)c(OC)c2)no1 (configuration not stated) | i | 0.7
COC(=O)c1ccc(N2CCN(C)CC2)c(NC(=O)c2cc(OC)cc(OC)c2)c1 | i | 1.2
Cc1c(S(=O)(=O)NCc2cccn2Cc2ccccc2)cnn1C(F)F | i | 0.94
Cc1ccc(-c2ncccc2C(=O)N2CCC(C(=O)N3CCN(c4ccccc4)CC3)CC2)cc1 | i | 0
O=C(CCC(=O)N1CCc2cc(S(=O)(=O)NC3CCCCC3)ccc21)N1CCOCC1 | i | -0.59
O=C(O)c1ccc2c(c1)N(Cc1ccc(F)cc1)C(=O)CO2 | i | -0.26
CCN(CC)S(=O)(=O)c1ccc2c(c1)nnn2CCC(=O)Nc1cccnc1 | i | -2.1
COc1ccc(F)cc1S(=O)(=O)N(C)CC1(C)CCOCC1 | i | 0.3
COCCCC/C(=N\OCCN)c1ccc(C(F)(F)F)cc1 | i | -1&0.43&0.04
Cc1cc(Nc2ccccc2)nc(N2CCN(C(=O)Nc3ccc(F)cc3)CC2)n1 | i | -0.25
CC1=C(c2ccc(Cl)cc2)S(=O)(=O)N=C1N1CCCN(C(=O)NC(C)C)CC1 | i | -0.09
N#C/C(=C\c1ccc(-c2cc(Cl)ccc2Cl)o1)C(=O)Nc1cccc2ncccc12 | i | 0.41&1.1
CC(C)OC(=O)CCC/C=C\C[C@H]1C(=O)C[C@@H](O)[C@@H]1/C=C/[C@@H](O)COc1cccc(C(F)(F)F)c1 | i | 1.4
O=C(NC1CCCC1)C1CCN(C(=O)N2CCOc3ccc(Cl)cc32)CC1 | i | 0.26
CCOc1c(C(=O)OC)sc2ccc(NC(=O)Nc3ccccc3OC)cc12 | i | 0.51
CN(CCc1noc(-c2ccc(C(=O)NC3CC3)cc2)n1)C(=O)Nc1ccccc1 | i | -0.68
Cc1cccc(-c2c3c(=O)n(C)c(=O)n(C)c3c3n2CCOC3c2coc3ccccc3c2=O)c1 (configuration not stated) | i | -1.4
CCOC(=O)Cc1ccc(NC(=O)Nc2nnc(N(C)Cc3ccccc3)s2)cc1 | i | -1.2
Cc1cccc(NC(=O)COc2cccc3c(=O)n(C)ccc23)c1 | i | 0.98
COc1ccc(-c2cc(C(=O)N3CCCC3c3cc(C)no3)no2)cc1OC (configuration not stated) | i | 0.65
CCOc1ccccc1CNC(=O)CC1c2ccccc2CCN1S(=O)(=O)c1ccc(F)cc1 (configuration not stated) | i | -1.1
CCC(C)NS(=O)(=O)c1ccc2c(c1)CCN2C(=O)CCC(=O)N1CCOCC1 (configuration not stated) | i | -0.87
CC1CCN(c2ccc(C(=O)N3CCc4ccccc43)nn2)CC1 | i | -0.26
Cc1cc(C)cc(NC(=O)Nc2ccccc2Sc2ccc3nncn3n2)c1 | i | -0.19
CC(=O)NCC(=O)N[C@H](CCC(=O)O)C(=O)O | i | 0.73
Cc1nc2c(-c3ccc(F)cc3)c(C)nn2c(C)c1CCC(=O)Nc1cccnc1 | i | -0.79

A portion of the library (hit frequency here may not be typical).
